# Vaccinia inh: blocks a specific stage of Vaccinia orthopoxvirus infection, primary screen, cell-based, single point. Vaccinia-infected cells, mCherry/Venus stage reporter fluorescence; stronger effect = lower value; some inactives read as strong as hits. activity change (mCherry), % (no concentration beside the values). actives 0.01% (n = 89,000);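 active = mCherry past -33% and 40 or more points under the early reporter, replicates agreeing; inconclusive = past -33% without that gap or agreement; tested in A549 cells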;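 also: scaled between vehicle wells and reference inhibitor wells; 23 nL library stock went into each well; one replicate is shown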
# Vaccinia inh Venus: further read-out of Vaccinia inh, marked with its call; activity change (Venus), %; measured here: Venus reporter, other viral stage;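 negative = less Venus signal; first of two replicates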
# An asterisk follows results filed as active; ? = inconclusive; nt = not tested or not shown. This is a subset, so the mix of outcomes need not match the whole.
# Value order: Vaccinia inh | Vaccinia inh Venus
C[C@H]1CN([C@@H](C)CO)S(=O)(=O)c2ccc(C#CC3CC3)cc2O[C@H]1CN(C)Cc1ccncc1
  -28.2 | -17.6
O=C(C[C@H]1CC[C@H]2NC[C@H](O)COC[C@@H]2O1)NCc1ccc(Oc2ccccc2)cc1
  10.1 | 8.8
COc1ccc(S(=O)(=O)Nc2cccc3c2O[C@@H](CN(C)S(=O)(=O)c2c(C)noc2C)[C@@H](C)CN([C@H](C)CO)C3=O)cc1
  4.9 | 4.6
C[C@H](CO)N1C[C@H](C)[C@@H](CN(C)C(=O)C2CCCCC2)OCCCC[C@H](C)Oc2ccc(NC(=O)NC3CCCCC3)cc2C1=O
  ? | nt
C[C@@H]1CN([C@@H](C)CO)C(=O)c2cc(C3=CCCCC3)cnc2O[C@@H]1CN(C)C(=O)c1cccc(F)c1
  12.6 | 11.2
COc1cccc(-c2ccc3c(c2)O[C@@H](CN(C)C(=O)C2CCCCC2)[C@@H](C)CN([C@@H](C)CO)S3(=O)=O)c1
  ? | nt
CCC(=O)N(C)C[C@H]1Oc2cc(C#CCC(C)C)ccc2S(=O)(=O)N([C@H](C)CO)C[C@H]1C
  0.7 | -9.6
CO[C@H]1CN(C)C(=O)c2ccc(NC(C)=O)cc2OC[C@H](C)N(Cc2cc(F)ccc2F)C[C@@H]1C
  -7.0 | -14.7
C[C@H]1CN([C@@H](C)CO)C(=O)c2cccc(N(C)C)c2O[C@@H]1CN(C)C(=O)Nc1ccc(F)cc1
  21.3 | 3.1
C[C@H]1CN([C@@H](C)CO)C(=O)Cc2cc(NC(=O)NC3CCCCC3)ccc2O[C@@H]1CN(C)Cc1ccc(Oc2ccccc2)cc1
  ? | nt
O=C(N[C@H]1CC[C@@H](CCn2cc(C3(O)CCCC3)nn2)O[C@@H]1CO)C1CC1
  -0.2 | 2.0
C[C@@H]1CN([C@H](C)CO)C(=O)c2cc(-c3cccnc3)cnc2O[C@@H]1CN(C)S(C)(=O)=O
  13.7 | 13.0
CO[C@H]1CN(C)C(=O)c2cc(NS(=O)(=O)c3cccc(F)c3)ccc2OC[C@H](C)N(C(=O)Cc2cccnc2)C[C@@H]1C
  8.5 | 3.3
CO[C@H]1CN(C)C(=O)c2cc(NC(=O)Cc3ccccc3)ccc2OC[C@H](C)N(C(C)=O)C[C@@H]1C
  4.8 | 9.2
O=C(Nc1cccc(Cl)c1)N1C[C@@H]2[C@H](c3ccccc31)[C@@H](CO)N2CC1CCOCC1
  -8.7 | -8.3

# Next part, overlapping the part above by four compounds.
# Value order: Vaccinia inh | Vaccinia inh Venus
C[C@@H]1CN([C@H](C)CO)C(=O)c2cc(-c3cccnc3)cnc2O[C@@H]1CN(C)S(C)(=O)=O
  13.7 | 13.0
CO[C@H]1CN(C)C(=O)c2cc(NS(=O)(=O)c3cccc(F)c3)ccc2OC[C@H](C)N(C(=O)Cc2cccnc2)C[C@@H]1C
  8.5 | 3.3
CO[C@H]1CN(C)C(=O)c2cc(NC(=O)Cc3ccccc3)ccc2OC[C@H](C)N(C(C)=O)C[C@@H]1C
  4.8 | 9.2
O=C(Nc1cccc(Cl)c1)N1C[C@@H]2[C@H](c3ccccc31)[C@@H](CO)N2CC1CCOCC1
  -8.7 | -8.3
COc1ccc(C#Cc2ccc([C@H]3[C@@H](CO)N4CCCCN(C(=O)Nc5ccccc5F)C[C@H]34)cc2)cc1
  ? | nt
C[C@H](CO)N1C[C@H](C)[C@H](CN(C)CC2CC2)Oc2c(NS(C)(=O)=O)cccc2C1=O
  7.5 | -4.6
C[C@H]1CCCCO[C@H](CN(C)C(=O)Nc2ccc(C(F)(F)F)cc2)[C@@H](C)CN([C@@H](C)CO)C(=O)c2cc(NC(=O)Nc3ccccc3)ccc2O1
  -15.1 | -5.0
Cc1ccc(S(=O)(=O)Nc2ccc3c(c2)C(=O)N(C)[C@H]2CC[C@@H](CC(=O)NCCc4ccncc4)O[C@@H]2CO3)cc1
  5.8 | 5.7
C[C@@H]1CN([C@H](C)CO)C(=O)c2cc(NC(=O)C3CCCCC3)ccc2O[C@@H](C)CCCCO[C@H]1CN(C)Cc1ccccc1
  -33.0 | -35.5
C[C@@H]1CN([C@H](C)CO)C(=O)c2ccccc2-c2ccccc2CO[C@@H]1CN(C)Cc1cccc(C(F)(F)F)c1
  -29.0 | -14.9
Cc1noc(C)c1NC(=O)NCC[C@@H]1CC[C@H](NC(=O)Nc2cccc(Cl)c2)[C@H](CO)O1
  -4.7 | 4.5
C[C@@H]1CN([C@H](C)CO)C(=O)c2cc(NS(C)(=O)=O)ccc2O[C@H]1CN(C)Cc1ccc(-c2ccccc2)cc1
  1.8 | -4.6
O=C(C[C@@H]1CC[C@@H]2[C@H](COC[C@@H](O)CN2CCC(F)(F)F)O1)NCc1ccc(Oc2ccccc2)cc1
  ? | nt
C[C@@H]1CN([C@H](C)CO)C(=O)c2cc(C3=CCCC3)cnc2O[C@@H]1CN(C)Cc1ccccc1F
  -4.7 | -0.5
CCCNC(=O)N1CC(=O)N2[C@H](C1)[C@H](c1ccc(-c3ccc(C)cc3)cc1)[C@@H]2CO
  -32.0 | -18.5
COc1ccc(C#Cc2cnc3c(c2)C(=O)N([C@H](C)CO)C[C@@H](C)[C@H](CN(C)C(C)=O)O3)cc1
  7.8 | 7.5
CO[C@@H]1CN(C)C(=O)c2cc(NC(C)=O)ccc2OC[C@@H](C)N(S(C)(=O)=O)C[C@@H]1C
  7.1 | 9.6
CC(C)NC(=O)N1[C@@H]2CN(C(=O)c3ccccc3F)c3ccccc3[C@@H]2[C@@H]1CO
  9.3 | 15.1
C[C@H]1CN([C@@H](C)CO)C(=O)CCCn2cc(nn2)CO[C@@H]1CN(C)C(=O)c1ccccc1
  12.2 | 21.5
C[C@@H]1CCCCO[C@H](CN(C)C(=O)Nc2ccc3c(c2)OCO3)[C@H](C)CN([C@H](C)CO)C(=O)c2cc(NS(=O)(=O)c3ccccc3)ccc2O1
  4.0 | 9.9
COc1ccc(CN2C[C@@H](O)COC[C@H]3O[C@@H](CC(=O)N(C)C)CC[C@@H]32)cc1
  17.4 | 13.9
CN1C(=O)c2cc(NC(=O)Cc3cccs3)ccc2OC[C@@H]2O[C@H](CC(=O)N[C@H]3CCN(Cc4ccccc4)C3)CC[C@@H]21
  -17.4 | -3.6
CCOC(=O)N(C)C[C@H]1OCc2cnnn2CCCC(=O)N([C@@H](C)CO)C[C@H]1C
  13.9 | 14.9
C[C@@H]1CN([C@@H](C)CO)C(=O)Cc2cc(NC(=O)CCN3CCOCC3)ccc2O[C@@H]1CN(C)S(=O)(=O)c1ccc(Cl)cc1
  8.9 | -5.0
C[C@@H](O)C#Cc1ccc([C@@H]2[C@@H](CO)N3CCCCN(C(=O)Nc4ccccc4)C[C@H]23)cc1
  29.6 | 15.4
C[C@H](CO)N1C[C@H](C)[C@@H](CN(C)Cc2ccc(C(=O)Nc3ccccc3N)cc2)OCc2cn(nn2)CCCC1=O
  2.8 | 4.3
N#Cc1ccc(-c2ccc([C@H]3[C@H]4CN(S(=O)(=O)c5ccccc5)CCCCN4[C@H]3CO)cc2)cc1
  ? | nt
Cc1ccc(S(=O)(=O)Nc2ccc3c(c2)CC(=O)N([C@H](C)CO)C[C@H](C)[C@H](CN(C)S(=O)(=O)c2c(C)noc2C)O3)cc1
  10.8 | 2.8
C[C@H](CO)N1C[C@H](C)[C@H](CN(C)C)Oc2ccc(NC(=O)c3ccncc3)cc2CC1=O
  12.2 | 6.7
CCNC(=O)C[C@@H]1CC[C@@H]2[C@H](COC[C@H](O)CN2C(=O)Nc2cccc(OC)c2)O1
  13.5 | 7.7
O=S(=O)(N[C@@H]1CCCN(Cc2ccc(OCCO)cc2)C1)c1ccc2ccccc2c1
  ? | nt
C[C@H]1CCCCO[C@H](CN(C)C(=O)Nc2cccc3ccccc23)[C@@H](C)CN([C@@H](C)CO)C(=O)c2cc(NC(=O)Nc3ccc(F)cc3)ccc2O1
  31.5 | 5.9
COc1ccc(S(=O)(=O)N(C)C[C@@H]2Oc3ccc(NC(=O)Nc4cccc5ccccc45)cc3CC(=O)N([C@@H](C)CO)C[C@H]2C)cc1
  16.2 | 14.7
COCCNC(=O)C[C@H]1C[C@H]2c3cc(NC(=O)CC4CC4)ccc3O[C@H]2[C@H](CO)O1
  -0.2 | -0.3
Cc1noc(C)c1S(=O)(=O)N(C)C[C@@H]1Oc2ccc(NC(=O)C3CCCCC3)cc2CC(=O)N([C@H](C)CO)C[C@@H]1C
  -2.3 | -0.2
COc1ccc(C#Cc2ccc([C@@H]3[C@H]4CN(C(=O)Nc5ccccc5F)CC(=O)N4[C@H]3CO)cc2)cc1
  12.4 | 4.5
N#C[C@@H]1[C@@H](c2ccc(C#CC3CCCC3)cc2)[C@H](CO)N1C(=O)c1cccc(F)c1
  ? | nt
C/C=C/c1ccc2c(c1)O[C@H](CN(C)C(=O)Cc1ccccc1)[C@@H](C)CN([C@@H](C)CO)S2(=O)=O
  -18.1 | -13.1
CN(C)CC(=O)Nc1ccc2c(c1)[C@H]1C[C@@H](CC(=O)NCc3cccnc3)O[C@@H](CO)[C@H]1O2
  -2.1 | -1.3
CCCC#Cc1cnc2c(c1)C(=O)N([C@@H](C)CO)C[C@H](C)[C@H](CN(C)Cc1cccnc1)O2
  17.8 | 11.2
C[C@H](CO)N1C[C@H](C)[C@@H](CN(C)CC2CCCCC2)Oc2c(NS(=O)(=O)c3cccs3)cccc2C1=O
  3.0 | 17.2
COCC(=O)Nc1ccc2c(c1)OC[C@@H](C)N(C(=O)c1ccncc1)C[C@@H](C)[C@H](OC)CN(C)C2=O
  1.1 | 6.9
CCCNC(=O)N(C)C[C@@H]1Oc2ncc(-c3ccc(C(=O)N(C)C)cc3)cc2C(=O)N([C@@H](C)CO)C[C@@H]1C
  6.1 | 0.9
CO[C@H]1CN(C)C(=O)c2ccc(NC(=O)CC(F)(F)F)cc2OC[C@H](C)N(C(C)=O)C[C@@H]1C
  2.7 | 5.1
O=C(Nc1ccccc1)N1CC(=O)N2[C@@H](CO)[C@@H](c3ccc(C#Cc4cccnc4)cc3)[C@@H]2C1
  -8.9 | -1.0
CCCNC(=O)N1[C@H](CNC(=O)c2ccccc2)[C@@H](c2ccccc2)[C@@H]1CO
  32.9 | 22.9
C[C@@H]1CN([C@H](C)CO)C(=O)CCCn2cc(nn2)CO[C@@H]1CN(C)Cc1cccc(O)c1
  2.2 | 0.0
C[C@@H]1CCCCO[C@@H](CN(C)Cc2ccc(Cl)c(Cl)c2)[C@H](C)CN([C@H](C)CO)C(=O)c2cc(NC(=O)Nc3ccc(C(F)(F)F)cc3)ccc2O1
  -6.8 | -5.2
COc1ccccc1C#Cc1cnc2c(c1)C(=O)N([C@@H](C)CO)C[C@@H](C)[C@H](CN(C)C(=O)CC1CC1)O2
  9.4 | -3.1
COc1ccc2c3c(n(C)c2c1)[C@@H](CO)N(C(C)=O)CC31CCN(C(=O)NC(C)C)CC1
  16.1 | 6.9
O=C(C[C@H]1C=C[C@@H](NC(=O)CCN2CCCCC2)[C@H](CO)O1)Nc1ccccc1
  9.7 | 18.9
O=C(c1ccncc1)N1C[C@@H]2[C@H](c3ccccc31)[C@H](CO)N2C(=O)Nc1cccc(F)c1
  14.0 | 7.5
COc1ccc(S(=O)(=O)N[C@@H]2C=C[C@@H](CC(=O)NCCc3ccccc3)O[C@H]2CO)cc1
  1.4 | -0.7
O=C(C1CCCC1)N1CC2(C1)[C@@H](c1ccccc1)[C@H](CO)N2C(=O)CC1CC1
  5.1 | 3.9
C[C@H](CO)N1C[C@H](C)[C@@H](CN(C)S(=O)(=O)c2ccccc2)Oc2ccc(NS(=O)(=O)c3ccccc3)cc2CC1=O
  5.4 | -0.5
C[C@@H]1CN([C@H](C)CO)C(=O)c2cc(NC(=O)Nc3cccc4ccccc34)ccc2O[C@@H]1CN(C)S(=O)(=O)c1ccccc1
  -12.3 | -4.8
N#C[C@@H]1[C@@H](c2ccc(C#CC3CCCC3)cc2)[C@H](CO)N1C(=O)Cc1ccccn1
  -19.8 | -14.2
C[C@@H]1CN([C@H](C)CO)C(=O)c2cc(N(C)C)ccc2O[C@H]1CN(C)C(=O)NC1CCCCC1
  26.8 | 11.3
COc1ccc2c3c(n(C)c2c1)[C@H](CO)N(C(=O)Nc1ccc(F)cc1)CC31CCN(C(=O)c2ccc3c(c2)OCO3)CC1
  ? | nt
C[C@@H]1CN([C@H](C)CO)C(=O)c2cc(C#CC3CCCCC3)cnc2O[C@@H]1CN(C)Cc1cncnc1
  -5.1 | -1.0
CNC[C@H]1Oc2c(NS(=O)(=O)c3ccc(C)cc3)cccc2C(=O)N([C@H](C)CO)C[C@@H]1C
  13.4 | 12.9
C[C@H]1CN([C@@H](C)CO)C(=O)c2cc(C3=CCCC3)cnc2O[C@H]1CN(C)C(=O)C1CCOCC1
  14.8 | 12.8
CNC[C@H]1Oc2cc(C#Cc3ccncc3)ccc2S(=O)(=O)N([C@H](C)CO)C[C@@H]1C
  3.6 | 5.4
CCC(=O)Nc1ccc2c(c1)C(=O)N(C)[C@@H]1CC[C@@H](CC(=O)NCCOC)O[C@H]1CO2
  12.4 | 13.6

# The list goes on:
# Value order: Vaccinia inh | Vaccinia inh Venus
C[C@@H]1CN([C@H](C)CO)C(=O)c2cc(NS(=O)(=O)c3cn(C)cn3)ccc2O[C@@H](C)CCCCO[C@H]1CN(C)Cc1ccccc1
  18.8 | 5.7
O=C(C[C@@H]1CC[C@@H]2[C@H](COC[C@H](O)CN2Cc2cccc(C(F)(F)F)c2)O1)NCc1ccc(F)cc1
  -19.3 | -19.6
COc1ccc(S(=O)(=O)Nc2ccc3c(c2)CC(=O)N([C@@H](C)CO)C[C@@H](C)[C@@H](CN(C)S(C)(=O)=O)O3)cc1
  14.3 | 2.5
O=C(C[C@@H]1CC[C@@H](NC(=O)c2ccncc2)[C@H](CO)O1)NCCc1ccncc1
  10.8 | 10.3
C[C@@H]1CN([C@H](C)CO)C(=O)Cc2cc(NS(=O)(=O)c3cccs3)ccc2O[C@H]1CN(C)C(=O)Nc1ccccc1
  12.4 | 17.2

# From PubChem BioAssay
